PABP FP inh – PABP poly(A) RNA binding inhibitors, primary screen, biochemical, fluorescence polarization, uHTS; Polyadenylate-binding protein 1 (Homo sapiens), P11940; inhibition, % at 35 µM; hit rate 1% among 290,000; AID 2014, 2009;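 active means 50% or more with normal probe brightness, or confirmed in later tests; inconclusive means above 50% with abnormal brightness, or retests that disagree; inactive means below 50% or failed in later tests; about a fifth of its hits are not listed in these tables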;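 further: calls also rest on retests at 20 µM and on dose response follow-up; controls were probe without protein and protein plus probe with vehicle; some compounds called inactive have numbers as strong as hits; many hits fall short of the cut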
CSC inhib – cancer stem cell viability inhibitors, primary screen, luminescence; AID 2717, 2010; hit rate 1.1% among 300,000; cancer stem cell-like cells viability; inhibition, % at 7.5 µM;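 active means mean at 75% or more and at least half the replicates too; inconclusive means mean and replicates disagree; tested in HMLE shEcad cells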;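 further: 0% = median of negative and 100% = median of positive control wells; the first replicate is given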
UUG fidelity – modulators of yeast start codon fidelity, primary screen, whole organism, S. cerevisiae, single point, plate reader; S. cerevisiae UUG-firefly luciferase reporter, luminescence/redox ratio; activity score, % at 18.7 µM; hit rate 0.13% among 350,000;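 active means replicate mean at a twofold rise or more, about +100% in these data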;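 further: firefly luciferase made from a UUG start codon reports start codon fidelity; reporter light over untreated wells divided by growth signal over untreated wells; some hits fall short of that in this replicate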
HIV Env fusion – inhibitors of HIV-1 Env-driven cell-cell fusion, primary screen, HeLa-JRFL effector, CEM21 target cells, luciferase | inhibition, % at 12.3 µM | hit rate 1.1% among 360,000 | AID 651610, 2012;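 active means mean replicate inhibition score of at least 50 and every replicate individually at or above 50; inconclusive means only one of the two criteria met; inactive means mean below 50 and not all replicates reaching 50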;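 further: 0% = plate neutral controls and 100% = maraviroc near 300 nM; one replicate is shown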
eIF4H FP inh – human eIF4H binding inhibitors, primary screen, translation initiation inhibitor project, biochemical, uHTS, fluorescence polarization. Eukaryotic translation initiation factor 4H (Homo sapiens), Q15056. eIF4H fluorescence polarization binding assay. inhibition, % at 35 µM. hit rate 0.94% among 290,000;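 active means 50% or more with normal probe brightness, or confirmed in later tests; inconclusive means above 50% with abnormal brightness, or retests that disagree; inactive means below 50% or failed in later tests; about a fifth of its hits are not listed in these tables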;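 further: calls also rest on retests at 20 µM and on dose response follow-up; 0% = protein and probe with vehicle and 100% = probe without protein; strong numbers were not always called active; many hits fall short of the cut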
MT1-MMP act inh – blockers of MT1-MMP proenzyme processing, primary screen, HT1080 RFP-PRO-GFP cells, GFP/RFP fluorescence | Matrix metalloproteinase-14 (Homo sapiens), P50281 | GFP/RFP ratio fluorescence, overnight; percent of plate control window, DMSO zero | GFP/RFP ratio change, % at 20 µM | hit rate 0.061% among 360,000 | AID 651647, 2012;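 active means GFP/RFP ratio change of at least 30% with cell ATP level not reduced by more than half and red fluorescence within 50% of control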; further: strong numbers were not always called active
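Test system: HT1080 RFP-PRO-GFP cells; Benchmarks: DMSO and RFP-L50D-GFP cell wells; Timing: cells overnight before dosing, compound overnight, 37 °C, 5% CO2; Compound: one 20 µM compound dose with 1% DMSO; Read-out: GFP/RFP fluorescence ratio.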
Rce1 inhib – yeast Rce1p protease inhibitors, primary screen, biochemical, fluorescence, cell-free homogeneous. yeast membranes, quenched prenylated peptide cleavage fluorescence. calls only. hit rate 0.27% among 290,000. AID 2563, 2010;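 active means fall in fluorescence gain of 50% or more versus controls, with final raw signal at or below 3038400; inconclusive means same 50% fall but final raw signal above 3038400; inactive means fall in fluorescence gain under 50%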;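 further: plate controls were neutral control wells for no effect and wells lacking membranes for full effect; tested at 10 µM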
Target sequence (Q03530 whole entry, looked up): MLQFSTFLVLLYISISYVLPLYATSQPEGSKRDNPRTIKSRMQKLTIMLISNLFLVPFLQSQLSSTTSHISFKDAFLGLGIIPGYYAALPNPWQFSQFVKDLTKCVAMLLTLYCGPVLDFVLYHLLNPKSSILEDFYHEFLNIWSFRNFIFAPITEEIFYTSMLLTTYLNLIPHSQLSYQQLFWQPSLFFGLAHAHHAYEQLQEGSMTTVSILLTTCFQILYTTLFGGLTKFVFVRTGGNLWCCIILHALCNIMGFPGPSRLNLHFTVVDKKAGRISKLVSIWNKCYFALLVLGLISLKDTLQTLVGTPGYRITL
MT1-MMP act inh RFP – recorded beside MT1-MMP act inh, whose call it bears; RFP signal change, %; measured here: RFP expression control read;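 0 = vehicle wells; hits needed this value within 50% of zero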
* marks the source's active call; other numbers are inactive results; i = inactive; u = inconclusive; x = not tested or not shown; + = active, no number. These rows are one share of the data. The share of hits here may be higher or lower than overall.

SMILES	PABP FP inh	CSC inhib	UUG fidelity	HIV Env fusion	eIF4H FP inh	MT1-MMP act inh	MT1-MMP act inh RFP	Rce1 inhib
CCC(=O)Nc1ccc(C(=O)N/N=C/c2cccnc2)cc1	-6	-12	-16	-78	3	7	2	i
Cc1ccc(Sc2c([N+](=O)[O-])c(C)nn2C)cc1	-8	0	x	9	-9	-2	-6	i
O=C1COc2ccc(C(=O)COC(=O)Cc3c(F)cccc3Cl)cc2N1	x	x	-4	6	x	2	-2	x
Cc1ccccc1NS(=O)(=O)c1ccc(C)c(NS(C)(=O)=O)c1C	-10	-13	x	-11	-3	2	2	i
CCCC(=O)OCCn1c(Br)nc2c1c(=O)[nH]c(=O)n2C	28	x	-16	27	1	2	6	i
CC(=O)Nc1cc(-c2ccccc2N(C)C)cn2c(-c3ccc(S(C)(=O)=O)cc3)cnc12	x	x	-2	-4	x	-102	2	x
O=C(CSc1nc2ccccc2[nH]1)Nc1ccccc1N1CCOCC1	2	-9	-21	-44	6	11	0	i
O=C(CN1CCCC1)NC(c1ccccc1)c1ccccc1	4	-6	-5	7	5	-2	1	i
O=C(NCc1cccnc1)Nc1ccccc1F	0	-8	-17	-25	12	3	2	i
CC(C)NC(=O)COC(=O)c1ccc(O)cc1	3	8	8	10	-1	7	3	i
S=c1[nH]cc2cnccn12	x	x	-5	26	x	0	1	x
Cc1cc(C)n(CC(O)COc2ccccc2C)n1 (configuration not stated)	-3	1	0	10	0	-1	1	i
CCOCc1nnc(NC(=O)CSc2ccc(C)cc2)s1	-4	-4	-2	-76	-4	9	7	i
COC(=O)CC1=NN(c2ccc(OC)cc2)C(=O)/C1=C\c1ccc(Cl)cc1	-14	6	x	-13	0	17	-2	i
Cc1cc(C)nc(NS(=O)(=O)c2ccc(NC(=O)Nc3ccccc3)cc2)n1	1	3	x	-1	-6	8	2	i
Cc1nc(N)sc1-c1csc(Nc2cccc(C(=O)O)c2)n1	53*	-4	11	46	85*	-9	12	i
CCCCCC(=O)Nc1ccc(C(=O)COC(=O)c2ccccn2)cc1	x	0	-13	-6	x	3	4	i
COc1ccc2[nH]c(=O)c(CN(c3ccc(C)c(C)c3)S(C)(=O)=O)cc2c1	4	-6	8	12	3	-4	-1	i
Cc1ccc(S(=O)(=O)Nc2cccc(C(=O)N3CCCC3)c2)cc1F	x	x	x	-13	x	-2	0	i
CNC(=O)c1c(Cl)cnn1-c1ccccc1	-1	-5	1	-36	5	-2	1	i
O=C(O)CCCCCNC(=O)CSc1nnc(-c2ccco2)n1-c1ccccc1	-2	-17	-4	-20	1	2	3	i
CCOCCCNC(=O)C(NC(=O)CNC(C)=O)c1ccc(Cl)cc1 (configuration not stated)	-15	3	-1	x	-5	-6	1	i
Cc1ccsc1CN1CCC(C(=O)NCc2ccccc2Cl)CC1	-1	-7	x	x	7	1	6	i
CCN(CC)c1nc(N)c2c(N)nc(OC)cc2c1C#N	x	11	-12	17	x	-6	7	+
Cc1cccc2c3nc4ccccc4nc3n(CCCN3C(=O)c4ccccc4C3=O)c12	4	x	-10	-61	5	-8	-8	i
Cc1c(CC(=O)N2CCC(C(=O)O)CC2)c(=O)oc2cc3c(cc12)CCC1(CCCCC1)O3	-3	-5	-5	x	-2	4	2	u
CCN=C1SC(CC(=O)NCCc2ccc(OC)c(OC)c2)C(=O)N1CC (configuration not stated)	7	-16	-17	-28	-6	1	6	i
CCOC(=O)c1cnc(-n2nc(C)cc2C)nc1NC	-6	-14	-26	-49	-5	7	5	i
Cc1nn2c(-c3ccncc3)ccnc2c1Cl	-7	x	-1	10	-1	3	4	i
CCCn1nnnc1NC(=O)c1ccc(C)cc1Cl	0	-5	2	x	-9	5	2	i
Nc1ccc(N2CCOCC2)c(S(=O)(=O)Nc2ccccc2Cl)c1	x	1	-10	x	x	-2	-1	x
Cc1ccccc1NC1=C(Cl)C(=O)OC1OC(C)C (configuration not stated)	-8	0	-6	-11	-3	-1	0	x
COc1cc(C(=O)NNC(=O)COc2ccc(Br)cc2)ccc1OCC(=O)N1CCOCC1	x	x	-18	2	x	1	0	x
CCCN(CC(=O)Nc1ccccc1C)C(=O)c1ccc2c(c1)S(=O)(=O)N=C1CCCCCN12	x	-12	-9	x	x	-2	9	x
CC(=O)c1c(C)[nH]c(C(=O)NCCc2ccc(Cl)cc2)c1C	-4	x	-4	-4	-4	3	-1	i
COc1cc(CNc2ncnc3c2ncn3[C@H]2CN(Cc3ccncc3)C[C@@H](CO)O2)cc(OC)c1OC	x	x	2	8	x	3	-6	x
OCCCCNCc1ccc(OCc2ccc(Cl)cc2Cl)cc1	-11	91*	-15	15	3	-2	-5	i
O=C(CC1Oc2ccccc2NC1=O)NCCCN1CCCC1=O (configuration not stated)	10	-4	-10	3	-1	-5	4	i
Cc1nn(-c2ccccc2)c(C)c1/C=N/NC(=O)c1cnccn1	5	-11	x	6	-14	2	8	i
Cc1ccc(C)c(NC(=O)CCN2CC(C)OC(C)C2)c1 (configuration not stated)	0	2	-8	x	2	7	6	i
COc1cc(C(C(=O)NC2CCCC2)N(Cc2ccccc2)C(=O)c2snc(C(N)=O)c2N)ccc1O (configuration not stated)	2	3	11	6	-10	0	1	i
COc1ccccc1CNC(=O)COC(=O)c1ccccc1SCC(=O)N1CCCC1	x	-13	3	-13	x	2	1	i
O=C(CSCc1ccccc1)N/N=C/c1cc2c(cc1Br)OCO2	-4	-14	x	26	-7	-1	-8	i
COc1ccc([C@H]2C[C@H](n3cc(C4CC4)nn3)[C@@H](O)CN2C(=O)C2CCCCC2)cc1	x	x	0	10	x	3	8	x
CCCCn1c(N)c(N(CC(C)C)C(=O)c2ccncc2)c(=O)[nH]c1=O	x	-8	x	-12	x	-2	1	i
Cc1ccc(-c2[nH]c3ccccc3c2C(C[N+](=O)[O-])c2ccco2)cc1 (configuration not stated)	17	x	x	x	0	-7	-9	i
COC(=O)CN1C(=O)Nc2ccc(Br)cc2C1c1ccccc1Cl (configuration not stated)	5	-19	11	x	7	-3	-3	i
O=C(NN=C1CCCC1)c1cccc(Br)c1	-2	15	-9	-13	0	-1	2	i
CCC(O)(c1ccc(OC)cc1)C(CN1CCOCC1)c1ccccc1 (configuration not stated)	-16	-10	x	19	-13	-7	0	i
COc1ccc(OC)c(C=NNC(=O)NN=Cc2cc(OC)ccc2OC)c1	x	x	-20	14	x	0	-2	x
CC(C)CC(OC(=O)c1ccco1)C(=O)NC1CCCC1 (configuration not stated)	10	2	-8	10	-3	-3	1	i
CC(=O)c1cccc(NC(=O)CSCc2ccccc2)c1	3	-15	-11	-6	0	-2	0	i
COc1ccccc1OCC(=O)NNC(=O)c1ccc2c(=O)n3c(nc2c1)CCC3	-10	5	1	8	-1	2	6	i
COC(C[C@H](O)[C@@H](C)[C@@H](O)COCc1ccccc1)OC	5	x	9	6	-5	7	6	i
Cc1cc(N2C(=O)C(O)=C(C(=O)c3ccco3)C2c2ccc(Cl)cc2)no1 (configuration not stated)	20	-15	-5	7	-4	1	3	i
CCOC(=O)C1CCN(S(=O)(=O)c2c(C)n[nH]c2C)CC1	-10	-15	-19	x	-8	6	5	i
CC(C)c1ccc(N(CC(=O)NC(C)(C)C)C(=O)CCC(=O)Nc2nccs2)cc1	4	-16	-22	-43	-9	1	-5	i
COc1ccc(N2CCN(c3ccc(N)cc3C#N)CC2)cc1	4	1	0	x	1	2	2	i
O=C(Cn1c(=O)oc2cc(S(=O)(=O)N3CCc4ccccc43)ccc21)NC1CCCC1	0	-7	-6	13	-4	-2	-12	i
CC(C)(C)c1ccc(OCC(=O)N/N=C/c2ccsc2)cc1	2	-8	-4	21	6	19	5	i
(list continues)
SMILES	PABP FP inh	CSC inhib	UUG fidelity	HIV Env fusion	eIF4H FP inh	MT1-MMP act inh	MT1-MMP act inh RFP	Rce1 inhib
O=C(COc1ccccc1)N=C1SC2CS(=O)(=O)CC2N1c1cccc(F)c1 (configuration not stated)	7	-7	-16	-30	-1	1	2	i
CCCCCn1c2nc3ccccc3nc2c2c(=O)n(CC(C)C)cnc21	4	0	-3	x	-5	-1	4	i
COc1ccc(NC(=O)CSc2nncn2C)cc1OC	-4	9	-13	x	8	4	6	i
Cc1onc(-c2ccccc2)c1C(=O)Nc1ccc2c(C)cc(=O)oc2c1	-2	23	-4	x	-6	6	3	i
CCOC(=O)Cn1cc(C(=O)C(C)(C)C)c2ccccc21	-3	-12	x	0	-8	-2	-2	i
Cc1ccc(S(=O)(=O)N2CCC(=O)N(C(COCc3cccc(C)c3)C(C)C)CC2)cc1 (configuration not stated)	-6	-3	7	20	9	-6	-12	i
CC1CCc2sc(C(=O)NCC(C)(C)N3CCOCC3)cc2C1 (configuration not stated)	x	-4	x	-48	x	-5	1	i

As a short view, 15 of the compounds above:
SMILES	PABP FP inh	CSC inhib	UUG fidelity	HIV Env fusion	eIF4H FP inh	MT1-MMP act inh	MT1-MMP act inh RFP	Rce1 inhib
COc1ccc(OC)c(C=NNC(=O)NN=Cc2cc(OC)ccc2OC)c1	x	x	-20	14	x	0	-2	x
CC(C)CC(OC(=O)c1ccco1)C(=O)NC1CCCC1 (configuration not stated)	10	2	-8	10	-3	-3	1	i
CC(=O)c1cccc(NC(=O)CSCc2ccccc2)c1	3	-15	-11	-6	0	-2	0	i
COc1ccccc1OCC(=O)NNC(=O)c1ccc2c(=O)n3c(nc2c1)CCC3	-10	5	1	8	-1	2	6	i
COC(C[C@H](O)[C@@H](C)[C@@H](O)COCc1ccccc1)OC	5	x	9	6	-5	7	6	i
Cc1cc(N2C(=O)C(O)=C(C(=O)c3ccco3)C2c2ccc(Cl)cc2)no1 (configuration not stated)	20	-15	-5	7	-4	1	3	i
CCOC(=O)C1CCN(S(=O)(=O)c2c(C)n[nH]c2C)CC1	-10	-15	-19	x	-8	6	5	i
CC(C)c1ccc(N(CC(=O)NC(C)(C)C)C(=O)CCC(=O)Nc2nccs2)cc1	4	-16	-22	-43	-9	1	-5	i
COc1ccc(N2CCN(c3ccc(N)cc3C#N)CC2)cc1	4	1	0	x	1	2	2	i
O=C(Cn1c(=O)oc2cc(S(=O)(=O)N3CCc4ccccc43)ccc21)NC1CCCC1	0	-7	-6	13	-4	-2	-12	i
CC(C)(C)c1ccc(OCC(=O)N/N=C/c2ccsc2)cc1	2	-8	-4	21	6	19	5	i
O=C(COc1ccccc1)N=C1SC2CS(=O)(=O)CC2N1c1cccc(F)c1 (configuration not stated)	7	-7	-16	-30	-1	1	2	i
CCCCCn1c2nc3ccccc3nc2c2c(=O)n(CC(C)C)cnc21	4	0	-3	x	-5	-1	4	i
COc1ccc(NC(=O)CSc2nncn2C)cc1OC	-4	9	-13	x	8	4	6	i
Cc1onc(-c2ccccc2)c1C(=O)Nc1ccc2c(C)cc(=O)oc2c1	-2	23	-4	x	-6	6	3	i

Compound activity from PubChem.
